# A1 inh: caspase 3/7 activation in MEF A1-2A-BIM cells, primary screen, A1 inhibitor project, cell-based, luminescence, HTS | Caspase-Glo 3/7 luminescence, 3 h; percent of clofoctol response, vehicle zero | caspase activation, % (test concentration not listed) | 330,000 tested, 0.066% active | AID 2462, 2010;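 active means over half of replicate activation scores above 10%, or exactly half above 10 with the replicate mean above 10; inconclusive means replicate mean below 10 yet half the replicates above 10; inactive means over half of replicates below 10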;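 further: wells of about 30 µL received 50 nL stock; many hits fall short of the cut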
# Calb FLC: C. albicans growth inhibition with fluconazole, primary screen, CaCi-2 strain, Alamar Blue fluorescence | growth inhibition, % (test concentration not listed) | C. albicans CaCi-2 (fluconazole-resistant clinical isolate) + fluconazole, 48 h | AID 1979, 2009 | 300,000 tested, 0.57% active;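 active means most replicates above 75%; inconclusive means exactly half above 75%; inactive means most below 75%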;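 further: all wells also contain fluconazole at 8 µg/ml as a sub-toxic cotreatment; 0% = median of DMSO wells and 100% = median of geldanamycin control wells; wells of about 8 µL received 7.5 nL stock; the first replicate is given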
# Beta2AR agonist: beta2AR agonists driving receptor internalization, primary screen, cell-based, FAP fluorogen, flow cytometry; Beta-2 adrenergic receptor (Homo sapiens), P07550; 340,000 tested, 0.43% active; response, % (test concentration not listed); AID 504454, 2011; Am2.2-beta2AR cells; reference of the scale not given here;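 active means response above a set limit, near 3 SD of response in nonfluorescent compounds, cut at about 42% in these data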;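 further: stock transfer was 100 nL into about 11 µL; a reference agonist was the positive control; negative values mostly stem from fluorescent compounds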
# ALR H2O2 inh: inhibitors of human ALR sulfhydryl oxidase, primary screen, biochemical, H2O2 detection, HRP-luminol luminescence, single point | FAD-linked sulfhydryl oxidase ALR (Homo sapiens), P55789 | purified ALR, DTT oxidation | inhibition, % (concentration not given with the values) | 290,000 tested, 3.8% active;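 active means mean and each replicate at 75% or more; inconclusive means only one of the two met; inactive means neither met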;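 further: stock transfer was 7.5 nL into about 7.5 µL; 0% = neutral wells and 100% = wells with inactivated enzyme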
# Beta apoptosis: inhibitors of cytokine-induced beta cell apoptosis, primary screen, luminescence. AID 435005, 2010. INS-1E cytokine-induced death, ATP luminescence, 48 h; percent of positive-control rescue, neutral wells zero. protection from apoptosis, % (concentration not given with the values). 300,000 tested, 0.8% active;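 active means all replicates at 75% or more, or half of them and the mean; inconclusive means half reach 75% but not the mean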;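 further: 0% = cytokine-treated negative control wells and 100% = positive control rescue; higher means more ATP so stronger rescue from cytokine killing; wells of about 40 µL received 100 nL stock; the first replicate is given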
# LANA-H2A inh: blockers of LANA interaction with H2A/H2B – biochemical, FP readout, HTS, primary screen; cell-free LANA-H2A/H2B peptide, fluorescence polarization; inhibition, % (concentration not given with the values); 320,000 tested, 0.6% active; in the data active means inhibition mostly above about 10%, no sharp cut-off; inactive means mostly below about 6.7%;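 further: stock transfer was 7.5 nL into about 10 µL; 0% = median of vehicle wells and 100% = median of positive control wells; one replicate is shown; the record names a cut of 25% in any replicate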
# Target sequence (Q9QR71 whole entry, looked up): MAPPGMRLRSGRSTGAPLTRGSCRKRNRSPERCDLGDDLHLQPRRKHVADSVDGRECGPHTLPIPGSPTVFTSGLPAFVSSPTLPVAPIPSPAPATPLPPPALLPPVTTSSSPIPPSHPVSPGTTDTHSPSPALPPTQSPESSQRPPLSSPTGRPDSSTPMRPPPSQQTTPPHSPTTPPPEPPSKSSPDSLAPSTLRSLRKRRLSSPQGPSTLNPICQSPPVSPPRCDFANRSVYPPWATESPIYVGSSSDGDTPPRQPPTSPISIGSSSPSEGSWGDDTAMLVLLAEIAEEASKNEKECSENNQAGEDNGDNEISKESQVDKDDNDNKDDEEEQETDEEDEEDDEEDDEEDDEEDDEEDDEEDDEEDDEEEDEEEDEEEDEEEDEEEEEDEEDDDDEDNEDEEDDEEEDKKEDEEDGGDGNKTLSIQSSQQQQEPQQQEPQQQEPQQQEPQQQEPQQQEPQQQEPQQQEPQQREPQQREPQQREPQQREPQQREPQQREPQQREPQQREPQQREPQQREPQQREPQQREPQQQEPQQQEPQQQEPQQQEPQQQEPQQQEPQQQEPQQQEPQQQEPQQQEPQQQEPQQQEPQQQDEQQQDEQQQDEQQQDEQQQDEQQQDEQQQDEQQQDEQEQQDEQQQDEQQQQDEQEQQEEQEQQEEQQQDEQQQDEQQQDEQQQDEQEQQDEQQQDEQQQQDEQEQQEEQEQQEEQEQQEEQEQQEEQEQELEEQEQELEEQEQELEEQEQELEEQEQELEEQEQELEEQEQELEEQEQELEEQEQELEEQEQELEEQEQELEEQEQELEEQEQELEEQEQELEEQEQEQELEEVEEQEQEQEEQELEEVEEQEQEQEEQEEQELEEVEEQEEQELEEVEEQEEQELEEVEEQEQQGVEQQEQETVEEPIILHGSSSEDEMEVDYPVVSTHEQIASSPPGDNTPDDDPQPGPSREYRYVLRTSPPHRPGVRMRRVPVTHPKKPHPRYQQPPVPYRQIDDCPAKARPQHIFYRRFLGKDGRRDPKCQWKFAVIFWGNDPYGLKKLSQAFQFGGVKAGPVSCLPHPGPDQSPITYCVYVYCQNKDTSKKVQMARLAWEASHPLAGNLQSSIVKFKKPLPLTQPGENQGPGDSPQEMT
# Ecoli rRNA inh: reduced GFP signal of wild-type E. coli, primary screen, bacterial rRNA inhibitor project, GFP/RFP fluorescence, OD600, single point; 350,000 tested, 1.6% active; GFP signal change (wild-type ribosome), % (test concentration not listed); E. coli WT GFP vs humanized-ribosome RFP mutants, 24 h; hits give low values; DMSO median 0, no signal -100;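 active means significant combined selectivity score with lowered wild-type GFP, culture density cut under 30%, mutant RFP and density less affected; inactive means any of these conditions unmet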; further: one replicate is shown; some compounds called inactive have numbers as strong as hits
# T cruzi inh: inhibitors of intracellular T. cruzi growth, primary screen, luminescence, NIH3T3 host cells. inhibition, % (test concentration not listed). AID 1885, 2009. T. cruzi beta-gal in NIH3T3, 90 h. 300,000 tested, 1.4% active;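 active means mean inhibition across valid replicates above about 55%, limit read from the data; inconclusive means mean below that limit but half or more replicates reach it; inactive means mean below it, under half of replicates reach it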;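 further: signal also drops with host cell toxicity which is not excluded here; 0% = plate median of DMSO wells and 100% = zero luminescence signal; higher percent means less beta-gal luminescence so fewer parasites; stock transfer was 50 nL into about 50 µL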
# Ecoli rRNA inh OD600: also measured in Ecoli rRNA inh; calls as there; OD600 change, %; measured here: OD600 growth;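 optical density of the mix in the first replicate; 0 = DMSO median and -100 = no signal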
# Ecoli rRNA inh RFP: recorded beside Ecoli rRNA inh, whose call it bears; RFP signal change, %; measured here: RFP humanized mutant strains;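 first replicate; 0 = DMSO median and -100 = no signal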
# An asterisk follows results filed as active; u = inconclusive; x = not tested or not shown.
SMILES,A1 inh,Calb FLC,Beta2AR agonist,ALR H2O2 inh,Beta apoptosis,LANA-H2A inh,Ecoli rRNA inh,Ecoli rRNA inh OD600,Ecoli rRNA inh RFP,T cruzi inh
COc1ccc(N2CCN(c3ccc(N)cc3C#N)CC2)cc1,0.1,7,6,86*,-4,-2.2,x,x,x,-5
Cc1cc(N2C(=O)C(O)=C(C(=O)c3ccco3)C2c2ccc(Cl)cc2)no1 (configuration not stated),-1.3,2,-8,48,-1,3.7,-1,-13,-2.0,7
CC(=O)c1cccc(NC(=O)CSCc2ccccc2)c1,-0.1,-23,2,97*,7,1.3,x,x,x,-17
COc1ccccc1OCC(=O)NNC(=O)c1ccc2c(=O)n3c(nc2c1)CCC3,-0.9,8,0,4,-2,-1.2,0,1,0.2,-4
COC(C[C@H](O)[C@@H](C)[C@@H](O)COCc1ccccc1)OC,x,-12,7,x,x,x,11,2,-6.6,-4
O=C1NCCN1Cc1ccccc1F,0.2,28,3,-12,1,0.7,x,x,x,-1
COc1ccc(NC(=O)CCCc2c[nH]c3ccccc23)cc1OC,0.7,19,1,12,-4,2.5,8,13,-0.8,-18
CC[n+]1c(-c2ccc(C)cc2)csc1Nc1c(C)n(C)n(-c2ccccc2)c1=O,0.3,-22,0,x,-1,-0.8,-8,-7,0.0,38
CN(C)/C=C(/C(=O)c1ccc(Cl)cc1)S(=O)(=O)c1ccccc1,0.0,7,8,-4,-1,-7.4,x,x,x,7
CC12CCC(C(=O)Nc3cccnc3)(CC1=O)C2(C)C (configuration not stated),0.6,2,10,-4,0,2.9,x,x,x,6
Cc1ccc(SCCNC(=O)c2ccc([N+](=O)[O-])c(C)c2)cc1,0.5,6,2,-1,-3,-1.3,-13,-16,0.5,0
OCCn1c(SC2CCCCC2)nc2ccccc21,-1.2,u,-23,5,-6,-1.1,x,x,x,-3
Cc1ccc(C(=O)n2nc(-n3cccc3)c3c(C)cc(C)nc32)cc1,x,5,-14,x,x,x,18,13,1.1,-8
Cc1ccccc1NC(=O)Nc1ccccc1C(=O)NCc1ccccc1,-0.1,0,0,x,-4,x,x,x,x,-16
CC(=O)c1c(C)[nH]c(C(=O)NCCc2ccc(Cl)cc2)c1C,-0.7,2,-7,x,-4,6.3,-16,-17,0.5,9
O=C(CC1Oc2ccccc2NC1=O)NCCCN1CCCC1=O (configuration not stated),0.3,5,10,-42,x,-0.3,12,8,2.2,2
OCCCCNCc1ccc(OCc2ccc(Cl)cc2Cl)cc1,0.9,-8,17,-2,44,-8.6,4,-7,11,60*
Cc1ccccc1NC1=C(Cl)C(=O)OC1OC(C)C (configuration not stated),0.0,-3,-6,-21,5,-1.1,x,x,x,-7
Nc1ccc(N2CCOCC2)c(S(=O)(=O)Nc2ccccc2Cl)c1,0.6,x,-3,47,-4,4.7,-19,-29,-3.6,x
CCCn1nnnc1NC(=O)c1ccc(C)cc1Cl,0.4,-6,2,0,1,5.5,-26,-3,-13,-3
Cc1nn2c(-c3ccncc3)ccnc2c1Cl,-1.4,14,3,x,-2,-1.7,12,9,0.7,-18
CCCN(CC(=O)Nc1ccccc1C)C(=O)c1ccc2c(c1)S(=O)(=O)N=C1CCCCCN12,0.2,x,-8,x,-3,-4.9,-2,-2,-1.5,x
O=C(CSCc1ccccc1)N/N=C/c1cc2c(cc1Br)OCO2,0.6,-8,-7,-19,-3,0.8,-4,8,2.8,-17
Cc1ccc(-c2[nH]c3ccccc3c2C(C[N+](=O)[O-])c2ccco2)cc1 (configuration not stated),-0.6,-1,10,94*,26,-3.8,x,x,x,31
CCCCn1c(N)c(N(CC(C)C)C(=O)c2ccncc2)c(=O)[nH]c1=O,1.0,-4,-7,-5,-6,-11,4,0,-2.6,-4

# Three of the entries above in order of the Ecoli rRNA inh value, low to high.
canonical_smiles	A1 inh	Beta2AR agonist	ALR H2O2 inh	LANA-H2A inh	Ecoli rRNA inh	Ecoli rRNA inh OD600	Ecoli rRNA inh RFP
CCCn1nnnc1NC(=O)c1ccc(C)cc1Cl	0.4	2	0	5.5	-26	-3	-13
COC(C[C@H](O)[C@@H](C)[C@@H](O)COCc1ccccc1)OC	x	7	x	x	11	2	-6.6
Cc1ccc(C(=O)n2nc(-n3cccc3)c3c(C)cc(C)nc32)cc1	x	-14	x	x	18	13	1.1

# Carrying on:
SMILES,A1 inh,Calb FLC,Beta2AR agonist,ALR H2O2 inh,Beta apoptosis,LANA-H2A inh,Ecoli rRNA inh,Ecoli rRNA inh OD600,Ecoli rRNA inh RFP,T cruzi inh
Cc1nn(-c2ccccc2)c(C)c1/C=N/NC(=O)c1cnccn1,-0.8,10,-10,x,3,-0.7,1,1,-3.8,8
COc1cc(C(C(=O)NC2CCCC2)N(Cc2ccccc2)C(=O)c2snc(C(N)=O)c2N)ccc1O (configuration not stated),-0.5,1,15,17,-3,-3.2,-1,1,-2.2,9
COc1ccccc1CNC(=O)COC(=O)c1ccccc1SCC(=O)N1CCCC1,-0.6,4,-2,-5,1,-3.6,-6,-8,4.3,7
Cc1ccc(C)c(NC(=O)CCN2CC(C)OC(C)C2)c1 (configuration not stated),0.2,-5,-2,-4,0,-8.8,x,x,x,5
COc1ccc(NC(=O)CC2SC(=N)N(c3ccccc3)C2=O)c(OC)c1 (configuration not stated),0.2,-2,2,10,-5,1.4,20,13,1.4,-14
CCOc1ccccc1NC(=O)Nc1ccc(Br)cc1C,-0.8,-24,6,-7,8,-3.1,7,6,-2.3,2
CC(C(=O)NC1CC(C)(C)NC(C)(C)C1)c1ccc([N+](=O)[O-])cc1 (configuration not stated),-0.4,14,0,-5,-2,-0.6,4,3,0.9,-13
CCOc1ccccc1NC(=O)CSc1nc(=O)n(Cc2ccccn2)c2c1CCC2,0.0,4,2,x,-1,1.6,1,-5,2.3,32
COc1ccc(C)cc1S(=O)(=O)NCC(c1ccc2c(c1)OCO2)N1CCOCC1 (configuration not stated),0.0,-3,1,-3,-3,5.0,4,2,2.3,1
N#Cc1c(-c2ccc(F)cc2)cc(-c2cccs2)nc1SCC(=O)O,0.4,36,10,25,4,5.3,-32,-63,-21,17
Cc1nc(N(C)Cc2ccccc2)c2c(C)c(C)sc2n1,-0.1,5,5,u,-5,5.6,-4,-46,5.2,3
CCCCCNC(=O)c1ccccc1SC,0.2,-1,4,-18,-10,2.1,x,x,x,-18
COc1ccc(NC(=O)Cc2c(F)c(F)c(F)c(F)c2F)cc1OC,0.4,-6,15,-1,3,-5.6,12,7,5.0,4
Clc1ncc(Cn2cccn2)s1,-0.2,-1,4,0,-8,-6.3,6,4,-1.4,-12
CC(=O)NC(Cc1ccc(F)cc1)C(=O)N1CCN(C(=O)NCc2ccccc2)CC1 (configuration not stated),-0.2,-8,6,-1,-3,1.6,7,7,-1.3,2
COc1ccc(C(CNC(=O)c2cccc(S(=O)(=O)N3CCCC3)c2)N2CCCC2)cc1 (configuration not stated),0.1,x,-2,0,2,4.1,4,14,3.7,x
COc1ccc(-c2cc(C)no2)cc1S(=O)(=O)N1CCOc2ccccc21,0.3,17,-3,-1,3,-4.7,3,11,2.3,15
c1ccc(C2OCC3(CO2)COC(c2ccccc2)OC3)cc1 (configuration not stated),0.2,-8,-3,15,-2,-2.0,x,x,x,1
OCC1(CCc2ccccc2)CCCN(CCCc2ccccc2)C1 (configuration not stated),0.9,-4,-6,x,-1,-0.9,-6,-14,3.6,16
ON=Cc1cccn1-c1ccccc1,-0.5,-24,-1,2,-6,-0.5,6,8,-0.1,-8
CCOCCCN(C(=O)CNC(=O)c1ccco1)C(C(=O)NC1CCCC1)c1cccc(OC)c1 (configuration not stated),-0.1,-2,-1,x,-2,5.0,4,7,0.1,-1
CNC(=O)COC(=O)Cc1ccc(Cl)cc1,0.5,6,4,-3,-4,-8.5,12,18,-4.3,-7
COc1ccc(OC)c(NC(=O)Cn2c(=O)n(CC(=O)NCc3ccco3)c(=O)c3ccccc32)c1,-1.1,8,20,x,x,1.2,x,x,x,1
CCOC(=O)C1=C(c2ccccc2)NC(=O)NC1c1cc(OC)c(OC)c(OC)c1 (configuration not stated),0.4,x,-2,41,-8,-1.8,5,8,0.0,x
Cc1nc(Cl)sc1C(=O)Nc1cccc2ccccc12,1.0,-13,5,1,-1,0.7,x,x,x,1
# Carrying on.
SMILES,A1 inh,Calb FLC,Beta2AR agonist,ALR H2O2 inh,Beta apoptosis,LANA-H2A inh,Ecoli rRNA inh,Ecoli rRNA inh OD600,Ecoli rRNA inh RFP,T cruzi inh
COCCNC(=O)c1ccccc1NC(=O)c1cc(OC)cc(OC)c1,0.3,12,-7,-4,1,1.7,2,-5,0.3,5
Cc1cc(=O)[nH]c(Nc2ccccc2C)n1,-0.3,1,4,-22,-1,4.4,-15,-35,-5.4,-13
CCOc1cc(C(=O)NCC2CCCO2)cc(OCC)c1OCC (configuration not stated),0.2,1,11,-5,-4,-3.1,x,x,x,-13
CCCCC(=O)Nc1nnc(-c2ccc(OC)cc2)s1,-1.7,-4,18,-5,-10,5.2,x,x,x,2
COc1ccc(Cc2nc3ccc(S(=O)(=O)N4CCOCC4)cc3[nH]2)cc1,0.4,0,2,-24,-5,-5.6,x,x,x,2
c1ccc(Oc2ncnc3sccc23)cc1,-0.2,3,-4,3,-17,1.4,-2,-2,2.1,-42
OC1(c2ccc(F)cc2)CCN(Cc2ccccc2)C1 (configuration not stated),0.5,3,1,-3,0,-10,1,3,-0.4,44
COc1ccc(C(=O)c2sc(NC(C)C)nc2N)cc1OC,-0.3,x,5,30,-5,18,x,x,x,x
O=C(C1CCCN(S(=O)(=O)c2cc(Cl)ccc2Cl)C1)N1CCCCCC1 (configuration not stated),-0.4,-15,-15,2,8,1.0,-12,-19,-2.6,9
CC(C)OCCCNc1ncc2c(n1)CC(c1ccc(N(C)C)cc1)CC2=O (configuration not stated),-0.5,-2,4,11,-1,-2.7,x,x,x,-6
Cc1ccc(C23OCCN2CCn2nc4ccccc4c23)cc1 (configuration not stated),0.6,x,-1,-5,-1,1.7,0,1,-11,x
CCCCNc1ccc(C(CC(N)=O)NC(=O)c2ccccc2)cc1[N+](=O)[O-] (configuration not stated),1.9,8,-17,0,x,-3.5,x,x,x,-7
O=C(CCS(=O)(=O)c1ccccc1)N(CCCN1CCOCC1)c1nc2ccccc2s1,0.6,12,6,98*,x,-1.6,9,8,1.5,8
Cc1ccc(NC(=O)CNCc2ccc(Cl)cc2Cl)cc1S(=O)(=O)N(C)C,0.2,1,-2,-11,-4,-0.3,-16,-32,-1.8,19

# Assay outcomes (PubChem BioAssay)

# An excerpt, so the mix of outcomes need not match the whole.
